VCAM-1 up: boosters of cytokine-driven VCAM-1 levels – cell-based, plate reader, pooled HUVEC, TNFa stimulus (AID 455). HUVEC TNFa-induced VCAM-1 immunofluorescence, plate reader; numbers were filed only for top-ranked candidate wells. 10,000 compounds, 0.2% hits. augmentation, % at 5 µM;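 active means a compound raising TNF-alpha-driven VCAM-1 surface staining, with its hit status upheld on visual or statistical review; inactive means the rest, including hits rejected on review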;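 further: 0% = TNFa with vehicle and 100% = strongest image-checked hit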
Proteasome disasm: blocks ATP-dependent breakdown of the yeast 26S proteasome; AID 751; anti-FLAG beads, GFP-proteasome disassembly, flow cytometry; 24,000 compounds, 0.2% hits; inhibition of disassembly, % (concentration not given with the values);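 active means above 40%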;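 further: plate controls were ATP control with full disassembly for no effect and ATP-gamma-S intact proteasomes for full effect; higher percent means more bead fluorescence retained so stronger block of disassembly; stock transfer was 100 nL into about 10 µL; wells with too few beads may also be inconclusive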
* marks the source's active call; other numbers are inactive results; i = inactive; x = not tested or not shown.

Sample of the layout (3 entries):
Values run as follows: VCAM-1 up | Proteasome disasm
- C=CCn1c(=N)n(CC(O)COc2ccccc2OC)c2ccccc21 (configuration not stated)
    x | -0.4
- CCOC(=O)c1sc2ncn(/N=C/N(C)C)c(=O)c2c1C
    i | -0.8
- O=C(c1ccc2c(c1)OCO2)N1CCN=C1SCc1cccnc1
    x | 2.7

All compounds of this part, previewed entries included:
Values run as follows: VCAM-1 up | Proteasome disasm
- C=CCn1c(=N)n(CC(O)COc2ccccc2OC)c2ccccc21 (configuration not stated)
    x | -0.4
- CCOC(=O)c1sc2ncn(/N=C/N(C)C)c(=O)c2c1C
    i | -0.8
- O=C(c1ccc2c(c1)OCO2)N1CCN=C1SCc1cccnc1
    x | 2.7
- O=C(NCc1ccco1)c1cc2c(s1)CSC2
    i | 2.8
- CC(=O)Nc1ccc(NC2=CC(=O)CC(C)(C)C2)cc1
    i | -4.1
- O=C(c1ccco1)N1CCN(S(=O)(=O)c2cccc3nsnc23)CC1
    x | -0.7
- Cc1csc(NC(=O)CSc2nnc(Cn3c(=O)sc4ccccc43)n2-c2ccccc2)n1
    x | -0.7
- CC(C(=O)Oc1ccc2c(c1)OCO2)N1C(=O)c2ccccc2C1=O (configuration not stated)
    i | -4.1
- COc1ccc(CC(=O)Nc2c3c(nn2-c2cccc(Cl)c2)CS(=O)C3)cc1 (configuration not stated)
    i | -0.6
- Cn1c(C(=O)NCCN2CCN(c3ccccc3F)CC2)cc2c(=O)n(C)c3ccccc3c21
    i | 2.7
- COc1ccc(C(=O)N2CCN=C2SC)cc1OC
    x | -0.8
- COc1ccc(-n2c(Cc3cccn3C)nnc2SCC(=O)Nc2ccc(C)cc2C)cc1
    x | 2.4
- CN(CCc1ccccn1)C(=O)CCNC(=O)Cn1cnc2ccccc2c1=O
    i | -0.1
- CCn1nc(NC(=O)c2cccnc2)c2cc3ccccc3nc21
    i | -1.6
- CCC(=O)Nc1c2c(nc3c1CCC3)CCCC2
    x | 1.0
- COc1ccccc1N(C(=O)NCc1ccccc1)C1=NCC(C)S1 (configuration not stated)
    x | 1.2
- CC1CC(=O)N(Cc2ccccc2)c2ccccc2N1C=O (configuration not stated)
    x | 0.2
- COc1ccc(OC)c(NC(=O)C2CCCN2C(=O)C2CCC(C)CC2)c1 (configuration not stated)
    x | -0.7
- O=C(Nc1ccc2ccccc2c1)N1CCN(c2ncccc2C(F)(F)F)CC1
    x | 0.6
- CC1(C)C(c2ccccc2)=NC(c2ccccc2)N1O (configuration not stated)
    i | -0.8
- CCCCOc1cccc(NC(=O)CSc2nccn2C)c1
    i | 1.5
- CSc1nsc(SC)c1NC(=O)OCC1CCCO1 (configuration not stated)
    x | 0.8
- Cc1cccc2cc(C(c3nnnn3C(C)(C)C)N3CCN(C(=O)c4ccco4)CC3)c(=O)[nH]c12 (configuration not stated)
    i | 2.9
- CCC(Sc1nc(-c2ccccc2)c(C#N)c(=O)[nH]1)C(=O)Nc1cc(C)on1 (configuration not stated)
    i | 0.4
- CC(C)COC(=O)NCC12C=CC(O1)C1C(=O)N(c3ccc(Cl)cc3)C(=O)C12 (configuration not stated)
    i | 7.5
- CCn1c(COc2cccc3ccccc23)nnc1SCC(N)=O
    i | 2.7
- CC(=O)NC(Cc1c[nH]c2ccccc12)C(=O)OCC(=O)Nc1cc(C)on1 (configuration not stated)
    i | 1.6
- Clc1ccc(Cl)c(-c2ccc(/C=N/c3ncn[nH]3)o2)c1
    i | -1.1
- COc1cccc(C2N(c3cccc(Cl)c3)C(=O)C3CCCN32)c1 (configuration not stated)
    x | 2.1
- COc1cc2c(C(=O)NCCCN3CC(C)CC(C)C3)cn(CC(C)C)c(=O)c2cc1OC (configuration not stated)
    x | 8.1

Values run as follows: VCAM-1 up | Proteasome disasm
- [O-][n+]1onc2c1CCc1c-2nn(-c2ccccc2Cl)[n+]1[O-]
    x | -1.6
- COc1cc(S(=O)(=O)NC2CCCCC2)ccc1Cl
    i | 0.4
- CC(=O)N1CCCc2cc(S(=O)(=O)NC(C(=O)NCc3ccc(C)cc3)C(C)C)ccc21 (configuration not stated)
    x | 0.8
- CCN(CCCNC(=O)CNC(=O)Cn1cnc2ccccc2c1=O)c1cccc(C)c1
    x | 1.2
- CCN(CC)CCCNC(=O)c1cc(-c2ccc(Cl)c(Cl)c2)on1
    x | 1.8
- O=C(C1CCCN(S(=O)(=O)c2cccc3nsnc23)C1)N1CC=C(c2ccccc2)CC1 (configuration not stated)
    x | 7.2
- Cc1cccc(N2C(=O)CC(N3CCN(Cc4ccc(Cl)cc4)CC3)C2=O)c1 (configuration not stated)
    i | -1.0
- C=CCn1c(SCC2=C(C(=O)OCC)C(C)NC(=O)N2)nnc1C1CCCCC1 (configuration not stated)
    i | 0.1
- COc1nc(N(c2ccccc2)c2ccccc2)nc(-n2ccnc2)n1
    x | -0.4
- CCOC(=O)N1CCN(S(=O)(=O)c2cc(Br)cc3c2N(C(C)=O)C(C)C3)CC1 (configuration not stated)
    x | 0.9
- CC1=C(C)C(=O)C(CCCCC#CCCCC#CCO)=C(C)C1=O
    i | -0.1
- O=C(NCc1cccnc1)c1cccc2c1C(=O)N(C1CCCCC1)C2
    x | 4.9
- Cc1cc(C)c(NC(=O)CN2CCN(C)CC2)c(C)c1
    x | 0.7
- Cc1ccc(NC(=O)c2ccc(F)c(S(=O)(=O)N3CCOCC3)c2)cc1F
    x | 0.7
- O=c1c2cc3ccccc3n2cnn1Cc1ccccc1F
    i | 1.2
- COC(=O)c1cccc(S(=O)(=O)N2CCN(c3nc4ccccc4s3)CC2)c1
    i | 0.4
- O=C(Nc1nnc(CCN2CCCCC2)s1)C1CCCCC1
    i | 1.2
- O=C(NCc1ccco1)c1cc(-c2cccc(Cl)c2)on1
    x | 0.5
- O=C(CSc1ncnc2c1oc1ccccc12)OCc1ccccc1
    x | 1.9
- COCCNC(=O)c1sc2nc(-c3ccccc3)cn2c1C
    x | -1.5
- CCOC(=O)N(C)c1ccc(C(O)(C(F)(F)F)C(F)(F)F)cc1
    i | -2.1
- Cc1ccc2c(c1)c1c3n2CCN(C(=O)C2CC2)C3CCC1 (configuration not stated)
    x | -0.4
- CC(NC(=O)CNC(=O)OCc1ccccc1)C(=O)N1CC(O)CC1C(=O)OCc1ccccc1 (configuration not stated)
    x | 1.3
- COc1cc(Nc2cc(C)nc3ncnn23)cc(OC)c1
    x | 0.0
- COc1cccc(OC)c1C(=O)N1CCOCC1
    i | -0.4
- COc1cccc(-c2nnc(SCC(=O)N3CCOCC3)o2)c1
    x | -2.1
- CC1CC(C)CN(c2nc3c(c(=O)[nH]c(=O)n3C)n2CCCSc2nc3ccccc3s2)C1 (configuration not stated)
    i | 2.1
- O=C(Nc1ccccc1)c1cccc(N2CCCC2=O)c1
    i | 1.9
- N#Cc1nc(-c2ccc(F)cc2)oc1NCc1cccc2c1OCO2
    x | 0.0
- CC(=O)OCC(=O)[C@H]1CC[C@H]2[C@@H]3CCC4=CC(=O)CC[C@]4(C)[C@H]3CC[C@]12C
    i | 0.0

Compound | VCAM-1 up | Proteasome disasm
O=C(Nc1ccccc1C(F)(F)F)c1cc(S(=O)(=O)N2CCOCC2)ccc1F | i | -1.3
CC(=O)N1CCc2cc(Br)cc(S(=O)(=O)NCCN3CCCCC3C)c21 (configuration not stated) | x | -2.9
Cc1noc(C)c1S(=O)(=O)N1CCCC(C(=O)Nc2cccnc2)C1 (configuration not stated) | x | -2.6
Cc1cccc(NC(=O)C2CCN(S(=O)(=O)c3cccc4cccnc34)CC2)c1 | x | -0.3
COc1ccc(Cl)cc1N(C)C(=O)CCc1nc(-c2ccc(C)cc2)no1 | x | 2.2
CCSc1nnc(NC(=O)CSc2nnc(Cc3cccn3C)n2-c2ccc(F)cc2)s1 | x | -1.0
Cc1csc(NC(=O)CCNS(=O)(=O)c2ccc3c(c2)c(=O)n(C)c(=O)n3C)n1 | x | -1.0
CN(CCCNC(=O)c1cccc(N2CCCC2=O)c1)c1ccccc1 | x | -1.8
O=C(c1cc(-c2cccc(O)c2)on1)N1CCCCC1 | x | 0.1
CC(C)c1cc(C(=O)N2CCN(C(c3ccccc3)c3ccccc3)CC2)no1 | x | 0.4
Cc1ccnc(NC(=O)CSc2cc(=O)n(C)c3ccccc23)c1 | x | 2.0
CC1C=CCC2C(=O)N(c3cccc(C(=O)N4CCCCCC4)c3)C(=O)C12 (configuration not stated) | x | -0.2

Compound | VCAM-1 up | Proteasome disasm
CCC(CC)C(=O)Nc1c2c(nn1-c1ccc(OC)cc1)CS(=O)C2 (configuration not stated) | x | -1.9
CCn1c(=O)cc(SCC(=O)NCCCN2CCN(c3ccc(F)cc3)CC2)c2ccccc21 | x | 1.4
Cc1cc2c(cc(C(=O)O)n2C)s1 | x | -1.1
COc1cc(C2NC(=O)NC(C)=C2C(=O)OCC2CCCO2)ccc1O (configuration not stated) | i | -1.5
CC(C)Oc1cc(O)c2c(=O)c(-c3ccc(O)cc3)coc2c1 | x | -1.2
COc1ccc(OC)c(-c2cc(C(=O)Nc3cc(C)n(Cc4ccc(Cl)cc4)n3)no2)c1 | x | 0.0
Cc1ccc2c(c1)NC(=O)C(CC(=O)NCc1cccnc1)O2 (configuration not stated) | x | 1.2
N#Cc1ccccc1NCc1ccccc1 | x | -1.2
O=C(Cn1c(=O)[nH]c2ccsc2c1=O)NC1CCCCC1 | x | -1.2
Cc1ccc(NC(=O)Cn2c(=O)n(CCCCC(=O)NCc3ccco3)c(=O)c3ccccc32)cc1 | x | 2.6
CCCN1CCN(C(=O)c2cccc3c2C(=O)N(CCOC)C3)CC1 | x | -3.1
O=C(CCCSc1nc2ccccc2s1)NC1=NCCS1 | i | 1.1

Compound | VCAM-1 up | Proteasome disasm
COc1ccc(-n2c(Cc3cccn3C)nnc2SCC(=O)NC2CCCC2)cc1 | x | 0.5
COC(=O)CN1C(=O)COc2ccc(Cl)cc21 | x | 1.3
CCOC(=O)Nc1oc2ccccc2c(=O)c1CN1CCOCC1 | x | -0.8
O=c1[nH]c(SCc2cccc(Cl)c2)nc2c1CCCC2 | x | -1.2
CCOC(=O)c1cnc(-n2nc(C)cc2C)nc1Nc1cccc(C(C)=O)c1 | i | 0.5
COc1cccc(NC(=O)Nc2nnc(N3CCCCC3C)s2)c1 (configuration not stated) | x | 0.1
Cc1oc(-c2ccccc2F)nc1CS(=O)CC(=O)NCc1ccc2c(c1)OCO2 (configuration not stated) | x | 40
COC(=O)c1cc(OC)c(OC)cc1NC(=O)CC1CCCCC1 | i | 0.7
CCCCCn1c(=O)[nH]c2cc(C(=O)O)ccc2c1=O | x | -1.4
O=C(O)CCn1c(SCc2ccccc2)nc2ccccc21 | i | 0.3
CCN(CC)S(=O)(=O)c1ccc2c(c1)nc(SCn1nnc3ccccc3c1=O)n2CC | i | 3.6
COc1cccc(-c2cc(C(=O)N3CCN(C(c4ccccc4)c4ccccc4)CC3)no2)c1 | x | -1.1

Structural class: those above containing a thiophene ring, fused or not.
Compound | VCAM-1 up | Proteasome disasm
CCOC(=O)c1sc2ncn(/N=C/N(C)C)c(=O)c2c1C | i | -0.8
O=C(NCc1ccco1)c1cc2c(s1)CSC2 | i | 2.8
Cc1cc2c(cc(C(=O)O)n2C)s1 | x | -1.1
O=C(Cn1c(=O)[nH]c2ccsc2c1=O)NC1CCCCC1 | x | -1.2

(next part)
Compound | VCAM-1 up | Proteasome disasm
COCC(C)NC(=O)c1cc(-c2ccccc2OC)on1 (configuration not stated) | x | 0.3
Cn1c(NC(=O)c2cc(-c3ccc4c(c3)OCO4)nc3ccccc23)cc(=O)n(C)c1=O | x | 2.1
O=C(Nc1ccc2c(c1)OCCO2)C1CCCN(S(=O)(=O)c2cccnc2)C1 (configuration not stated) | x | -1.8
CC1C(O)=C(c2nc3ccccc3[nH]2)C(=N)N1c1ccccc1 (configuration not stated) | i | -0.7
O=C(CSc1nnc(SCc2ccc(Cl)cc2)s1)N1CCN(C(=O)c2ccco2)CC1 | i | -2.5
CCCCN(C)C(=O)c1ccc2c(c1)N(CC)C(=O)c1ccccc1S2(=O)=O | x | 2.4
CCOC(=O)Cn1c(CN(Cc2ccccc2)Cc2ccccc2)nc2c1c(=O)[nH]c(=O)n2C | x | 0.6
C1=C(c2ccccc2)CCN(c2nc3ccccc3n3cnnc23)C1 | x | 1.0
Cc1ccccc1Cn1cc(S(=O)(=O)CC(=O)Nc2nccs2)c2ccccc21 | x | 0.7
CCOC(=O)c1nnn(-c2ccccc2C#N)c1C | x | -0.9
CCN1CCN(C(=O)C2CCN(Cc3nc(-c4cccc(Cl)c4)oc3C)CC2)CC1 | x | 9.4
COc1ccccc1N1CCN(C(=O)N2CCOCC2)CC1 | i | 5.1

Compound | VCAM-1 up | Proteasome disasm
CC(=O)Nc1ccc(S(=O)(=O)N2CCN(C(C)CCc3ccccc3)CC2)cc1 (configuration not stated) | i | 2.6
CCOc1ccccc1/C=c1\sc2ncnn2c1=O | x | 2.9
O=C(C1CCC1)N1CCc2cc(S(=O)(=O)NCCN3CCN(c4ccccc4F)CC3)ccc21 | x | 0.6
COC(=O)CSc1ncccc1-c1nc2ccccc2[nH]1 | i | 1.4
CCOC(=O)N1CCN(C(=O)c2cn(CC)c3cc(N4CCN(C)CC4)c(F)cc3c2=O)CC1 | i | 0.3
Clc1ccc(Oc2nc(Oc3ccc(Cl)cc3)nc(N3CCOCC3)n2)cc1 | x | 0.6
Cn1c(=O)oc2cc(S(=O)(=O)Nc3cccc(F)c3)ccc21 | x | 3.4
CC1CC(C)CN(C(=O)CCCn2c(=S)[nH]c3ccccc3c2=O)C1 (configuration not stated) | x | 0.2
O=c1oc2c3c4c(cc2cc1-c1nc2ccccc2[nH]1)CCCN4CCC3 | 100* | x
CCCn1cc(S(=O)(=O)CC(=O)NC2CCCCC2)c2ccccc21 | x | 0.9
CCOc1cc(C(=O)Nc2ncccn2)cc(OCC)c1OCC | i | -0.3

Bioassay records: PubChem BioAssay, several laboratories

This is a subset. The share of hits here may be higher or lower than overall.
